Screening results (PubChem BioAssay)
NPR1 antag – antagonists of human natriuretic peptide receptor Npr1; P16066; HEK293 hNpr1 GloSensor cGMP, ANP-stimulated luminescence; Potency, µM (highest dose often 46.3 µM), for the others: top-dose activity change, negative = inhibition, hits mostly inhibitors; actives 1.6% (n = 76,000); active = well fitted inhibition curve with a large enough effect; inconclusive = small, poorly fitted or top-dose-only effect; inactive = no such curve, though single readings can be large or run the other way;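 further: nearly all actives have a fitted effect of over 60% in size; nearly all hits also lower the signal before the agonist is added; a reference antagonist and vehicle were the controls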
Target sequence (P16066 whole entry, looked up): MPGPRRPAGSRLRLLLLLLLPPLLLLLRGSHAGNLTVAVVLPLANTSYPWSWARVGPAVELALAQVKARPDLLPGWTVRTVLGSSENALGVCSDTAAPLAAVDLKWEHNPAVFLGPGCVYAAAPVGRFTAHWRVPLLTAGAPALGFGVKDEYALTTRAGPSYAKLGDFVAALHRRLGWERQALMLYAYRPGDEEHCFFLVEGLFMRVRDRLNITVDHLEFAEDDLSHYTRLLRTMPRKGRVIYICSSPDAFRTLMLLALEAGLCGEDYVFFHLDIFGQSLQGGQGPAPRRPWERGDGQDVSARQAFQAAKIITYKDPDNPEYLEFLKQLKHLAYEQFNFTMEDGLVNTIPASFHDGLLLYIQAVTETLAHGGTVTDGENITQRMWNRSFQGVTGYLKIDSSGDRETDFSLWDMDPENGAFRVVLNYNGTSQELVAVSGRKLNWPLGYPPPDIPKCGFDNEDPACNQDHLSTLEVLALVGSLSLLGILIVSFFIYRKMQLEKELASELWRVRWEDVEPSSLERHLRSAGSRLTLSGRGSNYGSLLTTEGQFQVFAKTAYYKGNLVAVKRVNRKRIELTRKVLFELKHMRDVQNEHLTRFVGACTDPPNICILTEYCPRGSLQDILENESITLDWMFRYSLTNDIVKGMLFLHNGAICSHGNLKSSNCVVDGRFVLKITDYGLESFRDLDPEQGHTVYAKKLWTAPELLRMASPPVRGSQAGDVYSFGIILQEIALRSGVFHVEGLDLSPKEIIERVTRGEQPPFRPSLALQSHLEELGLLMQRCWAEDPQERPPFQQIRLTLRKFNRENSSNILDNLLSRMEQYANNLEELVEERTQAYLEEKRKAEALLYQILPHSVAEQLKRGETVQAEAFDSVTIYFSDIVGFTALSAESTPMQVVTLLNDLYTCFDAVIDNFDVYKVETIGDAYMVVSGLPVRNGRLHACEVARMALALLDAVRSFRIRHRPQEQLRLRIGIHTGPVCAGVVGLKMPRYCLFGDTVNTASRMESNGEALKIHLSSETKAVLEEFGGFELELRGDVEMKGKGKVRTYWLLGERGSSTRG
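HEK293 cells stably expressing human Npr1 and cGMP GloSensor pGS-40F, loaded 2 h with 2% GloSensor reagent, given compound 30 min at room temperature. Luminescence read before and 20 min after 0.1 nM hNppA.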
Starred values were filed as active, the others as inactive; ? = inconclusive; [ ] = another dose, or the depositor's remark. On the % scale 0 is the no-effect control and ±100 the full control effect; potency means the concentration at half of the fitted maximal effect. A portion of the library. The share of hits here may be higher or lower than overall.

SMILES | NPR1 antag
O=C(C1CC=CC1)N1C[C@@H](COc2ccncc2)[C@H](c2ccccn2)C1 | 1%
Cc1nc([C@@H]2CN(C(=O)CCc3c(C)noc3C)C[C@H]2C(N)=O)n[nH]1 | 7%
CCc1noc(-c2nc(-c3ccc(F)c(F)c3)no2)n1 | -14%
CCCNC(=O)C1COC2(CCN(C(=O)c3ccc(OC)cc3)CC2)N1C(=O)c1ccccc1 (stereo unspecified) | 2%
CN(C(=O)c1ccc[nH]c1=O)C1CCc2nn(C)c(=O)n2CC1 (stereo unspecified) | 2%
COCCN1C(=O)c2ccccc2C(C(=O)Nc2nnc(C3CC3)s2)C12CCCC2 (stereo unspecified) | 2%
COCCCNC(=O)c1c(C)noc1-c1cc(OC)cc(OC)c1 | 2%
CCc1noc(-c2cn(C3CCN(C(=O)c4ccc(OC)cc4)C3)nn2)n1 (stereo unspecified) | 0%
Cc1ccc(CN2CCN(C(=O)c3ccc4c(c3)C(O)CCCCCN4C)CC2)cc1 (stereo unspecified) | 11µM*
CCn1ccc(C(=O)N2CCC([C@H]3[C@@H](OC)C(=O)N3C(C)C)CC2)n1 | -1%
CC(=O)N1CCCCCCNC(=O)[C@@H]2CCC[C@@H]21 | -1%
O=C(NCc1cc(-c2ccccc2)n[nH]1)[C@H]1CCC[C@H](O)C1 | 1%
CC(C)C[C@H](NC(=O)[C@@H]1C[C@H](NC(=O)c2cccn2C)CN1C(=O)c1cccn1C)C(N)=O | -5%
O=C(Cc1ccsc1)N1CC(c2noc(COc3ccccc3)n2)C1 | -9%
Cc1cccc(C)c1NC(=O)CN1C(=O)NC2(CCOCC2)C1=O | -3%
O=C(CN1CCOCC1)N1C[C@@H](COCC2CC2)[C@H](c2ccccn2)C1 | -1%
O=C(c1n[nH]c2c1CCCC2)N1CCc2c(nc3cc(-c4ccccc4)[nH]n3c2=O)C1 | -10%
CCOc1ccc(NC(=O)N2CCc3cc(OC)c(OC)cc3C2CNC(=O)NC(C)C)cc1 (stereo unspecified) | 2%
COc1ccc(-c2cc(CC3(NC4CCN(C(C)=O)CC4)COC3)no2)cc1 | -1%[70.6 µM]
CN(C1CCOCC1)C1CCN(C(=O)c2cccc(Cl)c2)CC1 | 4%

No new results follow: 13 of the compounds above.
SMILES | NPR1 antag
O=C(C1CC=CC1)N1C[C@@H](COc2ccncc2)[C@H](c2ccccn2)C1 | 1%
Cc1nc([C@@H]2CN(C(=O)CCc3c(C)noc3C)C[C@H]2C(N)=O)n[nH]1 | 7%
CCc1noc(-c2nc(-c3ccc(F)c(F)c3)no2)n1 | -14%
CCCNC(=O)C1COC2(CCN(C(=O)c3ccc(OC)cc3)CC2)N1C(=O)c1ccccc1 (stereo unspecified) | 2%
CN(C(=O)c1ccc[nH]c1=O)C1CCc2nn(C)c(=O)n2CC1 (stereo unspecified) | 2%
COCCN1C(=O)c2ccccc2C(C(=O)Nc2nnc(C3CC3)s2)C12CCCC2 (stereo unspecified) | 2%
COCCCNC(=O)c1c(C)noc1-c1cc(OC)cc(OC)c1 | 2%
CCc1noc(-c2cn(C3CCN(C(=O)c4ccc(OC)cc4)C3)nn2)n1 (stereo unspecified) | 0%
Cc1ccc(CN2CCN(C(=O)c3ccc4c(c3)C(O)CCCCCN4C)CC2)cc1 (stereo unspecified) | 11µM*
CCn1ccc(C(=O)N2CCC([C@H]3[C@@H](OC)C(=O)N3C(C)C)CC2)n1 | -1%
CC(=O)N1CCCCCCNC(=O)[C@@H]2CCC[C@@H]21 | -1%
O=C(NCc1cc(-c2ccccc2)n[nH]1)[C@H]1CCC[C@H](O)C1 | 1%
CC(C)C[C@H](NC(=O)[C@@H]1C[C@H](NC(=O)c2cccn2C)CN1C(=O)c1cccn1C)C(N)=O | -5%

Going on with the list.
SMILES | NPR1 antag
CCc1ccc(NC(=O)Cn2ccn3nc4c(c3c2=O)CCCCC4)cc1 | 0%
COc1ccc(CC(=O)N2CCN(c3cc(-c4ccc(OC)cc4)[nH]n3)CC2)cc1 | -24%
Cc1nnc([C@@H]2CC(F)(F)CN2C(=O)COc2ccc(Cl)cc2)o1 | 6%
CN1CCN(c2cc(=O)c3ccnc(-c4ccc(CO)cc4)c3o2)CC1 | 5%[70.6 µM]
C[C@H](C(=O)NCCN1CCOCC1)C1CC[C@@]2(C)Cc3sc(CS(=O)(=O)C(C)(C)C)nc3[C@@H](C)[C@@H]2[C@H]1O (stereo partly specified) | -1%
COc1ccc(C(=O)N2CCc3n[nH]c(=O)n3CC2)cc1F | 3%
O=C(NC[C@H]1OC[C@@H](NCc2ccc(F)cc2)[C@@H]1O)c1ccncc1 | 2%[70.6 µM]
CN(C)c1nc(NCCN2CCOC2=O)ncc1F | -4%
COCCN1CC2(CCCN(C(=O)CCc3cccc(F)c3)C2)CCC1=O (stereo unspecified) | 9%
CC(=O)Nc1ccc(Cl)c(C(=O)N2CCC3(CCCN(C)C3=O)C2)c1 (stereo unspecified) | 0%
O=C(NCc1ccc(F)cc1Cl)C1CCN(C(=O)c2ncn3c2COC(c2ccccc2)C3)CC1 (stereo unspecified) | -12%
COc1ccc2[nH]c(C[C@@H]3C[C@@H](C(C)C)[C@H](CNC(=O)c4cnccn4)C=C3C)nc2n1 | -22%[70.6 µM]
Cc1cc(C(=O)N2CC(F)(F)C[C@H]2c2nc(C3CC3)no2)ccn1 | 5%
Cc1ccc(NC(=O)N2CCCCCCN(C)C(=O)CC2)cc1C | -1%
CC(=O)N[C@H]1[C@H](O)[C@H](O)C[C@@H]1c1ccc(C(F)(F)F)cc1 | 0%[70.6 µM]
CC(C)c1noc(-c2cn(C3CCN(C(=O)c4cccc5[nH]ccc45)CC3)nn2)n1 | 0%
NC(=O)[C@H](Cc1ccc(O)cc1)NC(=O)[C@@]1(O)C[C@@H](O)[C@H](O)[C@@H](NC(=O)Nc2ccc(OC(F)(F)F)cc2)C1 | 13%
Cc1noc([C@@H]2CN(S(=O)(=O)c3ccc4c(c3)CCCC4)C[C@H]2C(N)=O)n1 | -2%
CCN1C(=O)CCN(S(=O)(=O)c2cccc(OC)c2)CC12CCOCC2 | 1%
Cc1noc(C)c1CCCNC(=O)[C@@]12CNC[C@@H]1CN(Cc1ccccc1)C2 | -1%
COc1ccccc1C(=O)NC[C@@H]1C=C(C)[C@H](Cc2nc3ccccc3[nH]2)C[C@H]1C(C)C | ?
COc1ccc(-c2noc(C(=O)O)c2[C@@H](C)NC(=O)CC(C)C)cc1 | 2%[70.6 µM]
Cc1ncsc1CN1CCC2(CC1)CC(Cc1nc(-c3ccccc3)no1)CCO2 (stereo unspecified) | 10µM*
CNc1ccnc(N2CCC(N3CCCC(C(=O)N4CCCC4)C3)CC2)n1 (stereo unspecified) | 4%
O=C1CC(c2ccccc2)N(C(=O)CNC(=O)NCc2ccccc2)CCCCCN1 (stereo unspecified) | -2%
COc1cccc(S(=O)(=O)N2CCC3(CC2)CC(OC)CCO3)c1 (stereo unspecified) | -7%
O=C1CC(c2ccccc2)N(C(=O)C2CC2)CCCN(C(=O)c2ccoc2)CCN1 (stereo unspecified) | 1%
Cc1cccc(NC(=O)c2ccc3c(c2)N(C)C2CCCCN2C3=O)c1 (stereo unspecified) | -1%
CC(C)C[C@@H]1N[C@H](C(=O)NCc2ccccc2)Cc2cn(Cc3cccnc3)c3cccc1c23 | -21%
CCOc1ccc(CC(=O)NC2CCN(c3cc(-c4ccccc4)[nH]n3)CC2)cc1 | ?
O=C(N[C@@H]1CN(Cc2c(F)cccc2F)C[C@H]1CO)c1cccnc1 | -4%
CCOC(=O)c1ccccc1NC(=O)CN1C(=O)NC2(CCCCC2)C1=O | -11%
CCc1ccc(NC(=O)Cn2c(C)cc3nc4n(c(=O)c32)CCCCC4)cc1 | -4%
CNC(=O)[C@@H]1C[C@H](Oc2cccnc2)CN1C(=O)CN1CCCCCC1 | -1%
COC1CCN(CC2CCCCCN2)CC1 (stereo unspecified) | 3%
O=C(O)[C@@H]1CN(C(=O)CCCc2cn[nH]c2)C[C@H]1c1ccc2c(c1)OCO2 | 3%
CC1=NOC2(CCN(Cc3cccc4ccccc34)C2)C1 (stereo unspecified) | -20%[70.6 µM]
C[C@@H](c1ccccc1)N1C(=O)[C@@H]2CN(S(=O)(=O)c3cccs3)CCN2C1=O | 5%[70.6 µM]
COCC1CCCN(C(=O)c2cc(Cn3c(C)nc4ccccc43)[nH]n2)C1 (stereo unspecified) | -2%
CCN(CC)C(=O)N1CCCN(S(C)(=O)=O)C(c2ccccc2)CC(=O)NCC1 (stereo unspecified) | 4%
COC(=O)[C@@H]1Cc2nc[nH]c2CN1Cc1ccc(OC)c2ccccc12 | -4%[70.6 µM]
O=C(Cc1cccs1)N1CCCC(Cc2nncn2CC2CC2)C1 (stereo unspecified) | -18%
COc1cccc(CN2CCC(Oc3ccc(-c4noc(C5CC5)n4)cc3)C2)c1 (stereo unspecified) | 11µM*
Cc1nc(C2CC(O)C2)cc(N(C)Cc2nccn2Cc2ccccc2)n1 (stereo unspecified) | 2%
COc1cccc(CC(=O)N[C@H](Cc2ccccc2)C(=O)N2CCOCCNC(=O)CC2)c1 | 2%
CC(C)NC(=O)NC1CCCc2c1cnn2-c1ccc(F)cc1F (stereo unspecified) | 2%
CCN1C(=O)C2CC3(CCN(Cc4cnn(CC)c4C)CC3)CN2C1=O (stereo unspecified) | -2%
Cc1ccc(C(=O)NC2CCN(C(=O)c3cc4c(=O)[nH]c(C)cn4n3)CC2)cc1 | 10%
CC(C)CCN1CCCCCCNC(=O)[C@@H]2CCC[C@@H]21 | -2%
O=C(NCc1ccccn1)c1ccc2nccn2c1 | -3%[70.6 µM]
N#Cc1ccc(C(=O)NC2CCN(c3ccccc3)C2=O)cc1 (stereo unspecified) | -1%
CC(C)(CN1CCOCC1)CN1CCCN(Cc2cccnc2)CC1 | 0%
O=C(N[C@H]1CCOC[C@H]1C1CCOCC1)c1cc(=O)[nH]c2ccc(F)cc12 | 3%
COc1ccc(C(=O)N2CCCC(n3cc(-c4nc(-c5ccccc5)no4)nn3)C2)cc1OC (stereo unspecified) | ?
CC(C)(C)c1ccc(-c2cc(C[C@H]3CNCC[C@H]3CC(=O)N3CCN(c4ccccn4)CC3)no2)cc1 | 5%
COCCN1CC2(CCCN(C(=O)c3n[nH]c4ccc(C)cc34)C2)CCC1=O (stereo unspecified) | -2%
COCCN1CC2(CCCN(Cc3cc(C(C)(C)C)n[nH]3)C2)CCC1=O (stereo unspecified) | 8%
Cc1ccc(C(=O)N2C[C@@H](F)C[C@H]2C(=O)N2CCOCC2)cc1 | -4%
COc1ccc(CN2CCC[C@H]2c2nc(-c3ccnc(N4CCOCC4)c3)no2)cc1 | -21%[70.6 µM]
NC(=O)[C@@H](Cc1c[nH]c2ccccc12)NC(=O)[C@@H]1C[C@@H](NS(=O)(=O)c2cccs2)CCN1C(=O)CSCC(=O)O | 0%

The list goes on:
SMILES | NPR1 antag
CNC(=O)c1cccc(-c2cnc3[nH]cc(CC(=O)NCCOC)c3c2)c1 | 2%[70.6 µM]
O=c1[nH]ccn1C1CCN(Cc2cncs2)CC1 | 9%[70.6 µM]
C[C@H](N)C(=O)N1CCC(n2nccc2NC(=O)Nc2cccc(F)c2)CC1 | 0%
CC(C)NC(=O)[C@H]1O[C@H](CCN2CCN(c3ccc(F)cc3)CC2)CC[C@@H]1O | 5%[70.6 µM]
COc1ccc(CCC(=O)N2CCCN(S(=O)(=O)c3ccccc3)CCC(=O)NCC2)cc1 | 3%
Cc1ccc(-n2c(C3CCN(C(=O)Cc4ccccc4F)CC3)n[nH]c2=O)cc1 | -2%
CCOc1ccc(C2Cn3nnc(-c4nc(-c5ccc(C)c(C)c5)no4)c3CO2)cc1 (stereo unspecified) | -3%
COCCCNC(=O)N1CCC2(CC1)CN(C(C)=O)CC2COC (stereo unspecified) | 5%
Clc1ccc(-c2cnc([C@@H]3COCCN3C3CCCCC3)[nH]2)cc1 | -20%[70.6 µM]
CCC(=O)N1CCOc2ccc(CN3CCCCC3)cc2C1 | 4%
COc1cccc(NC(=O)CC2CCCCN(C)C2=O)c1 (stereo unspecified) | 4%
O=C(c1ccncc1)N1CCC(c2noc(-c3cnccn3)n2)C1 (stereo unspecified) | 4%
CSc1ccc(CNC(=O)c2ccc3c(c2)N(C)C2CCCCN2C3=O)cc1 (stereo unspecified) | -11%
Cn1c([C@H]2CCN(C(=O)COc3ccccc3)C2)nc2ccccc21 | 4%[70.6 µM]
O=C(c1ccc2c(c1)N(C(=O)c1ccccc1)CC2)N1CCN(c2cccc(Cl)c2)CC1 | -25%
COc1cc(-c2nc3cc4[nH]c(=O)[nH]c4cc3[nH]2)cc(OC)c1O | 5%
Cc1ccc(CN2CC[C@@H]3OCC(=O)N(Cc4ccccc4)[C@H]3CC2)o1 | -21%[70.6 µM]
CN1CCCCC1CCNC(=O)c1ccc(N2CCOCC2)nc1 (stereo unspecified) | 14%
Cc1ccc(CN(C)C2CCc3ccccc32)cc1 (stereo unspecified) | 19%[70.6 µM]
COCc1cc(=O)n(CC(=O)NCc2cccc(OC)c2)c(N2CCOCC2)n1 | 0%
COc1cccc(-c2nc3cc4c(cc3cc2CN2CCCOCC2)OCO4)c1OC | -5%
Cc1ccc(-c2noc([C@@H]3C[C@@H](O)CN3C3CCN(C)CC3)n2)cc1F | 5%[70.6 µM]
O=C(Nc1ccc(Oc2ccccc2)cc1)N[C@H]1CO[C@H]2[C@@H]1OC[C@@H]2n1cc(-c2ccccn2)nn1 | -24%
Cc1nc(-c2c3n(c(=O)n(CC(=O)Nc4ccc(F)c(Cl)c4)c2=O)CCCC3)no1 | -7%
